Vaccinia inh = blocks a specific stage of Vaccinia orthopoxvirus infection | activity change (mCherry), % (test concentration not listed) | 89,000 tested, 0.01% active | Vaccinia-infected cells, mCherry/Venus stage reporter fluorescence; stronger effect = lower value; some inactives read as strong as hits;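 active = mCherry past -33% and 40 or more points under the early reporter, replicates agreeing; inconclusive = past -33% without that gap or agreement; tested in A549 cells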;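 also: scaled between vehicle wells and reference inhibitor wells; 23 nL library stock went into each well; one replicate is shown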
Vaccinia inh Venus = further read-out of Vaccinia inh, marked with its call; activity change (Venus), %; measured here: Venus reporter, other viral stage;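 negative = less Venus signal; first of two replicates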
* marks the source's active call; other numbers are inactive results; ? = inconclusive; . = no result given; & = joins results of further samples. This is a subset; the hit share may differ from the screen's.

SMILES	Vaccinia inh	Vaccinia inh Venus
C[C@@H]1CCCCO[C@@H](CN(C)S(C)(=O)=O)[C@@H](C)CN([C@H](C)CO)C(=O)c2cc(NS(=O)(=O)c3ccc(F)cc3)ccc2O1	28	17
O=C(C1CC1)N1CCCCN2[C@H](CO)[C@H](c3ccc(-c4cccc(F)c4)cc3)[C@@H]2C1	-7	-5
CC=Cc1ccc2n(c1=O)C[C@@H]1[C@@H](CO)[C@H](C(=O)NCC)[C@H]2N1Cc1cccc(Cl)c1 (mixture of isomers)	8	9
CCC(=O)N1CCCCN2[C@@H](CO)[C@H](c3ccc(C#CCOC)cc3)[C@@H]2C1	22	15
Cc1noc(C)c1NC(=O)N1C[C@H](O)COC[C@H]2O[C@@H](CC(=O)NCC3CC3)CC[C@@H]21	-7	-4
COc1ccc(S(=O)(=O)N(C)C[C@@H]2OCCCC[C@@H](C)Oc3ccc(NC(=O)c4ccccc4)cc3C(=O)N([C@@H](C)CO)C[C@@H]2C)cc1	-25	-10
CO[C@H]1CN(C)C(=O)c2ccc(NC(=O)C3CCC3)cc2OC[C@H](C)N(Cc2ccc(F)cc2)C[C@@H]1C	-28	-21
COc1cccc(NC(=O)N2[C@@H](CO)[C@H](c3ccccc3)[C@@H]2CNC(C)C)c1	-3	2
CCCNC(=O)Nc1ccc2c(c1)OC[C@H](C)N(Cc1cccnc1)C[C@H](C)[C@@H](OC)CN(C)C2=O	-9	0
CC(C)NC(=O)N(C)C[C@@H]1OCCCC[C@H](C)Oc2ccc(NC(=O)c3ccncc3)cc2C(=O)N([C@H](C)CO)C[C@@H]1C	14	6
C[C@H](CO)N1C[C@H](C)[C@H](CN(C)S(=O)(=O)c2cn(C)cn2)Oc2c(NC(=O)c3ccc(-c4nccs4)cc3)cccc2C1=O	10	6
CCCNC(=O)C[C@@H]1CC[C@@H]2[C@H](COC[C@H](O)CN2C(=O)c2ccccn2)O1	20	9
CN(C)C(=O)C[C@@H]1CC[C@@H]2[C@H](COC[C@H](O)CN2CC2CC2)O1	7	14
CO[C@H](CN(C)C(=O)c1cc(Cl)cc(Cl)c1)[C@H](C)CN(C(=O)Nc1ccc(F)cc1)[C@@H](C)CO	0	4
COc1ccc(NC(=O)N2CCCCN3[C@H](CO)[C@@H](c4ccc(C#CCC(C)C)cc4)[C@H]3C2)cc1	?	.
Cc1noc(C)c1NC(=O)N(C)C[C@H]1Oc2c(NC(=O)C3CC3)cccc2C(=O)N([C@H](C)CO)C[C@H]1C	8	14
O=C(C[C@H]1CC[C@H]2[C@@H](COC[C@H](O)CN2Cc2cc(F)cc(F)c2)O1)NCc1cccc(F)c1	-10	-12
COc1ccc(-c2cnc3c(c2)C(=O)N([C@H](C)CO)C[C@@H](C)[C@@H](CN(C)C(=O)Cc2ccccc2)O3)cc1	-9	-16
O=S(=O)(c1ccccc1F)N1CC[C@@H]2[C@H](CO)Nc3ccc(C4=CCCCC4)cc3[C@@H]21	-3	-14
CN1CCN(C(=O)C[C@H]2CC[C@H]3[C@@H](COC[C@H](O)CN3C(=O)Nc3cc(Cl)cc(Cl)c3)O2)CC1	-9	-7
CNC(=O)C[C@@H]1CC[C@H]2[C@H](COc3ccc(NC(=O)c4cccc(F)c4)cc3C(=O)N2C)O1	-11&-6	-6&-9
COC(=O)c1cn(CCNC(=O)Nc2ccccc2)nn1	5	1
Cc1noc(C)c1S(=O)(=O)Nc1cccc2c1O[C@@H](CN(C)C(=O)Nc1ccc(F)cc1)[C@@H](C)CN([C@H](C)CO)C2=O	2	2
CN1CCN(C(=O)C[C@@H]2CC[C@H]3[C@@H](COC[C@@H](O)CN3Cc3cccc(-c4ccncc4)c3)O2)CC1	-6	-9
C[C@@H]1CN([C@@H](C)CO)C(=O)Cc2cc(NC(=O)Nc3ccc(C(F)(F)F)cc3)ccc2O[C@H]1CN(C)Cc1ccncc1	?	.

No new results follow: entries from further up.
SMILES	Vaccinia inh	Vaccinia inh Venus
C[C@@H]1CCCCO[C@@H](CN(C)S(C)(=O)=O)[C@@H](C)CN([C@H](C)CO)C(=O)c2cc(NS(=O)(=O)c3ccc(F)cc3)ccc2O1	28	17
O=C(C1CC1)N1CCCCN2[C@H](CO)[C@H](c3ccc(-c4cccc(F)c4)cc3)[C@@H]2C1	-7	-5
CC=Cc1ccc2n(c1=O)C[C@@H]1[C@@H](CO)[C@H](C(=O)NCC)[C@H]2N1Cc1cccc(Cl)c1 (mixture of isomers)	8	9
CCC(=O)N1CCCCN2[C@@H](CO)[C@H](c3ccc(C#CCOC)cc3)[C@@H]2C1	22	15
Cc1noc(C)c1NC(=O)N1C[C@H](O)COC[C@H]2O[C@@H](CC(=O)NCC3CC3)CC[C@@H]21	-7	-4
COc1ccc(S(=O)(=O)N(C)C[C@@H]2OCCCC[C@@H](C)Oc3ccc(NC(=O)c4ccccc4)cc3C(=O)N([C@@H](C)CO)C[C@@H]2C)cc1	-25	-10

Additional records.
SMILES	Vaccinia inh	Vaccinia inh Venus
CO[C@H]1CN(C)C(=O)c2cc(NC(=O)NC(C)C)ccc2OC[C@@H](C)N(Cc2ccccn2)C[C@H]1C	4	3
C[C@@H]1CCCCO[C@@H](CN(C)S(=O)(=O)c2ccccc2)[C@@H](C)CN([C@@H](C)CO)C(=O)c2cc(NS(=O)(=O)c3cccs3)ccc2O1	16	7
O=C(C[C@@H]1C[C@H]2c3cc(NC(=O)CC4CC4)ccc3O[C@H]2[C@H](CO)O1)NCc1cc(F)ccc1F	-4	7
O=C(N[C@H]1CC[C@H](CCn2cc(-c3cccnc3)nn2)O[C@@H]1CO)c1ccccc1F	-3	-3
CC(=O)N(C)C[C@H]1OCc2ccccc2-c2c(n(C)c3ccccc23)C(=O)N([C@@H](C)CO)C[C@H]1C	4	4
Cc1ccc(S(=O)(=O)N(C)C[C@@H]2Oc3ccc(NC(=O)CCCCCC(=O)Nc4ccccc4N)cc3CC(=O)N([C@@H](C)CO)C[C@H]2C)cc1	14	13
C[C@@H]1CN([C@@H](C)CO)S(=O)(=O)c2ccc(-c3cncnc3)cc2O[C@@H]1CN(C)C(=O)Cc1ccncc1	27	19
CC(C)CC#Cc1cnc2c(c1)C(=O)N([C@H](C)CO)C[C@H](C)[C@H](CN(C)C(=O)NC1CCCC1)O2	-7	-1
C[C@H]1CN([C@@H](C)CO)C(=O)c2cc(/C=C/c3ccccc3)cnc2O[C@@H]1CN(C)Cc1ccncc1	-4	-10
CCC(=O)N1CCCCN2[C@H](C1)[C@H](c1ccc(-c3cccnc3)cc1)[C@@H]2CO	28	0
CCCN1C[C@@H](C)[C@H](OC)CN(C)C(=O)c2cc(NC(=O)c3ccccc3)ccc2OC[C@@H]1C	-1	-5
COc1ccc(CNC(=O)C[C@@H]2CC[C@H](NC(=O)CN(C)C)[C@H](CO)O2)cc1	-11	-10
C/C=C/c1ccc([C@@H]2[C@H]3CN(C(=O)c4ccncc4)CC(=O)N3[C@H]2CO)cc1	8	0
Cc1cc(C(=O)Nc2cccc3c2O[C@@H](CN(C)Cc2ccc(Cl)c(Cl)c2)[C@H](C)CN([C@H](C)CO)C3=O)n(C)n1	?	.
C[C@@H]1CN([C@@H](C)CO)S(=O)(=O)c2ccc(C#CC3CCCC3)cc2O[C@H]1CN(C)Cc1cncnc1	?	.
C[C@@H]1CCCCO[C@@H](CN(C)Cc2ccccc2)[C@H](C)CN([C@H](C)CO)C(=O)c2cc(NC(=O)Cc3ccccc3)ccc2O1	?	.
CN1C(=O)c2cc(NC(=O)c3cccs3)ccc2OC[C@@H]2O[C@@H](CC(=O)NCCN3CCCCC3)CC[C@H]21	4	-4
C[C@@H]1CN([C@H](C)CO)C(=O)CCCn2nncc2CO[C@H]1CN(C)S(=O)(=O)c1ccccc1F	20	6
COc1ccccc1C#Cc1cnc2c(c1)C(=O)N([C@H](C)CO)C[C@H](C)[C@H](CN(C)C(=O)CC1CC1)O2	12	1
CC=Cc1ccc2n(c1=O)C[C@@H]1[C@@H](CO)[C@H](C(=O)NC3CCC3)[C@H]2N1Cc1ccncc1 (mixture of isomers)	12	6
COCC(=O)Nc1ccc2c(c1)C(=O)N(C)[C@H]1CC[C@@H](CC(=O)NCC3CCCCC3)O[C@H]1CO2	-13	-8
OC[C@H]1[C@@H](c2ccc(C#CC3(O)CCCC3)cc2)[C@H]2CN(Cc3cccnc3)CCCCN21	11	6
CCC(=O)N(C)C[C@@H]1Oc2cc(-c3ccncc3)ccc2S(=O)(=O)N([C@H](C)CO)C[C@H]1C	22	20
N#C[C@H]1N[C@@H](CO)[C@H]1c1ccc(C#Cc2ccccc2F)cc1	5	14
COCC(=O)N(C)C[C@@H]1Oc2cc(C3=CCCCC3)ccc2S(=O)(=O)N([C@@H](C)CO)C[C@H]1C	1	-1
SMILES	Vaccinia inh	Vaccinia inh Venus
Fc1cccc(CN2C[C@@H]3N[C@H](C2)C3c2ccc(-c3cncnc3)cc2)c1 (some centres undefined)	?	-6
Cc1ccccc1-c1ccc([C@H]2[C@H]3CN(S(=O)(=O)Cc4ccccc4)CCCCN3[C@H]2CO)cc1	?	.
CC(=O)N(C)C[C@H]1Oc2ncc(-c3ccc(C#N)cc3)cc2C(=O)N([C@@H](C)CO)C[C@H]1C	16	11
C/C=C/c1ccc([C@@H]2[C@@H](CO)N3CCCCN(C(=O)Cc4ccncc4)C[C@@H]23)cc1	21	9
O=C(C[C@H]1C[C@@H]2c3cc(NC(=O)c4cccnc4)ccc3O[C@@H]2[C@@H](CO)O1)NCc1cccc(F)c1	7	1
COc1ccccc1NC(=O)Nc1ccc2c(c1)C(=O)N(C)C[C@H](OC)[C@@H](C)CN[C@H](C)CO2	-4	2
C[C@H]1CN([C@@H](C)CO)C(=O)c2cccc(NC(=O)CCCCCC(=O)Nc3ccccc3N)c2O[C@H]1CN(C)C(=O)Nc1cccc2ccccc12	31	31
C[C@@H]1CN([C@H](C)CO)S(=O)(=O)c2ccc(C3=CCCCC3)cc2O[C@H]1CN(C)C(=O)Cc1ccncc1	-24	-18
O=C(C[C@H]1C=C[C@H](NC(=O)c2cccc(F)c2)[C@H](CO)O1)NCc1ccc(Oc2ccccc2)cc1	-2	-5
CCC(=O)N1CCC2(CC1)CN(Cc1cccc(Cl)c1)[C@@H](CO)c1c2c2ccc(OC)cc2n1C	1	-3
Cc1ccc(S(=O)(=O)NCC[C@H]2CC[C@H](NC(=O)c3cccc(F)c3)[C@H](CO)O2)cc1	-11	-1
COc1cccc(NC(=O)N[C@H]2CC[C@@H](CC(=O)NCc3ccccn3)O[C@@H]2CO)c1	2	-2
C[C@@H]1CN([C@H](C)CO)C(=O)c2cccc(NC(=O)Nc3ccccc3)c2O[C@@H]1CN(C)S(=O)(=O)c1ccccc1	-18	-13
COc1cccc(C(=O)Nc2ccc3c(c2)C(=O)N(C)[C@@H]2CC[C@H](CC(=O)NCc4ccccc4F)O[C@H]2CO3)c1	-13	-3
Cc1ccc(S(=O)(=O)N[C@H]2CC[C@@H](CC(=O)NCCCN(C)C)O[C@H]2CO)cc1	11	6
CO[C@H]1CC[C@@H]2CCN(C)C(=O)[C@H](C)[C@@H](OC)CN(C)C(=O)c3cc(C#N)ccc3OC[C@@H]1O2	9	7
C[C@@H]1CN([C@@H](C)CO)C(=O)CCCn2cc(nn2)CO[C@H]1CN(C)S(=O)(=O)c1cn(C)cn1	1	3
C[C@H](O)C#Cc1cnc2c(c1)C(=O)N([C@@H](C)CO)C[C@@H](C)[C@@H](CN(C)Cc1ccc(-c3ccccc3)cc1)O2	?	.
COc1cccc(-c2cnc3c(c2)C(=O)N([C@@H](C)CO)C[C@H](C)[C@H](CN(C)CC2CCOCC2)O3)c1	13	14
C[C@@H]1CCCCO[C@@H](CN(C)C(=O)C2CCCCC2)[C@@H](C)CN([C@H](C)CO)C(=O)c2cc(NC(=O)c3ccncc3)ccc2O1	-11	-2
O=C(CCN1CCCCC1)NCC[C@H]1CC[C@H](NC(=O)C2CC2)[C@@H](CO)O1	3	5
CN1CCCCN2[C@H](CO)[C@@H](c3ccc(-c4ccccc4)cc3)[C@H]2C1	2	6
O=S(=O)(c1ccccc1F)N1CCCCN2[C@@H](CO)[C@@H](c3ccc(-c4ccccc4)cc3)[C@@H]2C1	?	.
COc1ccc(C#Cc2ccc([C@H]3[C@@H](CO)N4CCCCN(C(=O)Nc5cccc(F)c5)C[C@@H]34)cc2)cc1	-22	-21
CN(C)C(=O)C[C@H]1CC[C@@H](NC(=O)C2CCC2)[C@H](CO)O1	19	16

The final two records of the section above are carried over, then new ones follow:
SMILES	Vaccinia inh	Vaccinia inh Venus
COc1ccc(C#Cc2ccc([C@H]3[C@@H](CO)N4CCCCN(C(=O)Nc5cccc(F)c5)C[C@@H]34)cc2)cc1	-22	-21
CN(C)C(=O)C[C@H]1CC[C@@H](NC(=O)C2CCC2)[C@H](CO)O1	19	16
C[C@@H]1CN([C@@H](C)CO)S(=O)(=O)c2ccc(C#CCN(C)C)cc2O[C@@H]1CN(C)Cc1ccccc1F	6	12
C[C@@H]1CN([C@H](C)CO)S(=O)(=O)c2ccc(C3=CCCC3)cc2O[C@@H]1CN(C)Cc1ccncc1	-9	3
C/C=C/c1ccc2c(c1)O[C@@H](CN(C)C(=O)CN(C)C)[C@@H](C)CN([C@H](C)CO)S2(=O)=O	12	6
O=C(C[C@H]1CC[C@@H]2[C@H](COC[C@@H](O)CN2Cc2cccc(Cl)c2)O1)Nc1nccs1	-7	-9
COc1ccc(CN(C)C[C@@H]2OCCCC[C@@H](C)Oc3ccc(NC(=O)Nc4ccc(OC)cc4)cc3C(=O)N([C@@H](C)CO)C[C@@H]2C)cc1	-15	-20
COc1cccc(NC(=O)C[C@@H]2CC[C@@H]3[C@@H](COc4ccc(NC(=O)c5ccccc5F)cc4C(=O)N3C)O2)c1	-6	-3
C[C@H]1CCCCO[C@H](CN(C)S(=O)(=O)c2cn(C)cn2)[C@@H](C)CN([C@@H](C)CO)C(=O)c2cc(NS(=O)(=O)c3ccc(Cl)cc3)ccc2O1	12	7
